# Ecoli growth: E. coli growth inhibition, primary screen, OD600; AID 1053175, 2014; OD600 absorbance (no concentration beside the values); 0.21% of 330,000 active; Escherichia coli growth, 23 h; stronger effect = lower value;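 active = OD600 absorbance below the run mean of sample wells minus 3.6 SD, in any replicate, cut at about 0.56 in these data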;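 note: stock transfer was 300 nL into about 60 µL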
# ALR H2O2 inh: inhibitors of human ALR sulfhydryl oxidase, primary screen, biochemical, H2O2 detection, HRP-luminol luminescence, single point; FAD-linked sulfhydryl oxidase ALR (Homo sapiens), P55789; 3.8% of 290,000 active; AID 485317, 2010; inhibition, % (no concentration beside the values); purified ALR, DTT oxidation;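 active = mean and each replicate at 75% or more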;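 note: stock transfer was 7.5 nL into about 7.5 µL; 0% = neutral wells and 100% = wells with inactivated enzyme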
# Target sequence (P55789 whole entry, looked up): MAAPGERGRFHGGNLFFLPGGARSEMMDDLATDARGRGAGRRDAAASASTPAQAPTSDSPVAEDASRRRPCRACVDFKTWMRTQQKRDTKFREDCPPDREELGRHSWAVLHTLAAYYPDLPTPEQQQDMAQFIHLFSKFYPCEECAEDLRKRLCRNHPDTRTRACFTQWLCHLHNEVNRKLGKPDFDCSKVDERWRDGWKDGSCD
# Beta2AR agonist: beta2AR agonists driving receptor internalization, primary screen, cell-based, FAP fluorogen, flow cytometry | response, % (concentration not given with the values) | 0.43% of 340,000 active | Beta-2 adrenergic receptor (Homo sapiens), P07550 | AID 504454, 2011 | Am2.2-beta2AR cells; reference of the scale not given here;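 active = response above a set limit, near 3 SD of response in nonfluorescent compounds, cut at about 42% in these data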;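 note: stock transfer was 100 nL into about 11 µL; a reference agonist was the positive control; negative values mostly stem from fluorescent compounds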
# UCH37 inh: inhibitors of human UCH37 deubiquitinase, primary screen, biochemical, Ub-AMC cleavage, fluorescence. 0.33% of 330,000 active. AID 588478, 2011. inhibition, % (no concentration beside the values). purified proteasome/UCH37. Ubiquitin carboxyl-terminal hydrolase isozyme L5 (Homo sapiens), Q9Y5K5;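 active = mean of two replicates above 20%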;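 note: 0% = compound-free wells with enzyme and 100% = wells lacking proteasome; stock transfer was 100 nL into about 20 µL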
#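 System: Proteasome-associated human UCH37 deubiquitinase; Input: 0.15 nM proteasome in added enzyme buffer; Also added: Ub-AMC substrate from 1 µM stock; Incubation: 30 min compound-proteasome preincubation then 25 min substrate reaction, room temperature; Detection: fluorescence, ex 355 nm, em 460 nm; Read-out: % inhibition of Ub-AMC cleavage fluorescence; Benchmarks: no-proteasome and no-compound wells.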
# FGF22 binding: binders of human FGF22 protein, primary screen, FGF22 synaptogenesis inhibitor project, biophysical, thermal shift, single point. Fibroblast growth factor 22 (Homo sapiens), Q9HCT0. recombinant FGF22 thermal shift, SYPRO orange fluorescence; percent of sucrose octasulfate shift, DMSO zero. calls only at 9.99 µM. 1.5% of 340,000 active. AID 651658, 2012;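 active = melting point raised past a set limit in the mean and every replicate; three in four hits are not shown here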
# Target sequence (Q9HCT0 whole entry, looked up): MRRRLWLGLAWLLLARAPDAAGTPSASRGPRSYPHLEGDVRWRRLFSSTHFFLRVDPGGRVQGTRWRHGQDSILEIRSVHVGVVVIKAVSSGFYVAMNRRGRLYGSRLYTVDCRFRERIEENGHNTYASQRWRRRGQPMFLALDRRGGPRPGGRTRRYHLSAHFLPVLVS
# Ecoli rRNA inh: reduced GFP signal of wild-type E. coli, primary screen, bacterial rRNA inhibitor project, GFP/RFP fluorescence, OD600, single point. E. coli WT GFP vs humanized-ribosome RFP mutants, 24 h; stronger effect = lower value; DMSO median 0, no signal -100. GFP signal change (wild-type ribosome), % (no concentration beside the values). 1.6% of 350,000 active. AID 720706, 2013;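 active = significant combined selectivity score with lowered wild-type GFP, culture density cut under 30%, mutant RFP and density less affected; inactive = any of these conditions unmet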; note: one replicate is shown; some compounds called inactive have numbers as strong as hits
# HNF4A DNA FP: change in binding of human HNF4A to DNA, primary screen, biochemical, fluorescence polarization, FITC-DNA; 0.3% of 360,000 active; activity change, % at 10 µM; 1 h; Hepatocyte nuclear factor 4-alpha (Homo sapiens), P41235; in the data active = activity change above about 30%, passing the limit was not always enough;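 note: controls were the assay level and a saturating level of protein; the project sought stronger binding though the title names inhibitors; some compounds called inactive have numbers as strong as hits; positive values seem to mean higher polarization but the record does not say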
# Target sequence (P41235 whole entry, looked up): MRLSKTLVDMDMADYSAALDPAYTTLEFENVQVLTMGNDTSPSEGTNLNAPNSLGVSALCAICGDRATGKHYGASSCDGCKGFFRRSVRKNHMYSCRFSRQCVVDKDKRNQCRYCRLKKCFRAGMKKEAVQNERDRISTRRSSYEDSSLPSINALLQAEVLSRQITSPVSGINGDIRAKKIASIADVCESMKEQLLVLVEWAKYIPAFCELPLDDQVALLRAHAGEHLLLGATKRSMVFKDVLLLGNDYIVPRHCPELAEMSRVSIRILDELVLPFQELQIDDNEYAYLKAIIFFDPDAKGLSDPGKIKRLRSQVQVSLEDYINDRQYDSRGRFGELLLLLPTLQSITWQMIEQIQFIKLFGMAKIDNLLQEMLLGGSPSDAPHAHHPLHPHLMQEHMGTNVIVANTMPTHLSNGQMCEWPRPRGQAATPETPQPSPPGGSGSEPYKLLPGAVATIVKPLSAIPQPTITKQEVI
# Ecoli rRNA inh OD600: further read-out of Ecoli rRNA inh, marked with its call; OD600 change, %; measured here: OD600 growth;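 optical density of the mix in the first replicate; 0 = DMSO median and -100 = no signal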
# Ecoli rRNA inh RFP: also measured in Ecoli rRNA inh; calls as there; RFP signal change, %; measured here: RFP humanized mutant strains;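 first replicate; 0 = DMSO median and -100 = no signal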
# Numbers without * were called inactive; i = inactive; · = not tested or not shown; & = joins results of further samples. An excerpt (hit frequency here may not be typical).
SMILES	Ecoli growth	ALR H2O2 inh	Beta2AR agonist	UCH37 inh	FGF22 binding	Ecoli rRNA inh	Ecoli rRNA inh OD600	Ecoli rRNA inh RFP	HNF4A DNA FP
O=C(Nc1sc2c(c1C(=O)O)CCC2)c1ccco1	0.68	11	-4	11	·	7	-20	9.3	-5.1
O=C1CSC(c2cccc(F)c2)N1c1ccc(O)cc1 (configuration not stated)	0.69	-57	-7	4.5	·	·	·	·	1.1
CC(NC(=O)[C@H](C)N1C(=O)N2CCc3c([nH]c4ccccc34)[C@@]2(C)C1=O)c1ccccc1 (some centres not stated)	0.66	-7	-6	0.5	i	·	·	·	2.3
Cc1cc(NC(=O)CSc2nnc(C(F)(F)F)n2C)no1	0.72	-7	-2	4.9	i	7	7	1.6	-3.1
CS(=O)(=O)N1Cc2ccccc2CC1C(=O)OCC(=O)Nc1ccc2ccccc2c1 (configuration not stated)	0.71	-4	3	0.9	·	·	·	·	-4.1
Cc1cccc(C)c1NC(=O)CSC(=O)c1sc2ccccc2c1Cl	0.72	4	1	0.7	i	5	13	0.9	-3.6
Cc1ccc(S(=O)(=O)N/N=C\c2ccccc2OCc2ccccc2)cc1	·	0	-3	·	·	·	·	·	-0.5
COc1ccc(C(=O)CC(C(=O)O)c2ccc3c(c2)OCO3)cc1OC (configuration not stated)	·	·	·	·	i	-5	-3	-2.2	-1.8
CCOCCc1nnc(NC(=O)CN2C(=O)c3ccccc3C2=O)s1	0.63	-3	-7	1.7	·	·	·	·	-0.2
CC1=N/C(=C/c2cc(Br)cc(Br)c2O)C(=O)O1	·	0	-2	·	i	0	10	1.2	0.2
CCCn1c(SCC(=O)Nc2nonc2C)nnc1-c1ccoc1C	0.76	-16	13	0.6	·	·	·	·	-0.6
Cc1cc(N/N=C2\CC(C)CC(C)(C)C2)nc2ccccc12 (configuration not stated)	·	-21	19	·	i	3	-5	0.8	2.2
O=C(COC(=O)/C=C/c1ccc(F)cc1)NC(=O)NCc1ccccc1	·	·	·	·	i	8	12	-1.4	-3.8
COC(=O)c1ccc(Cl)c(NC(=O)CSc2nnc(-c3ccncc3)o2)c1	0.69	-3	5	0.1	i	7	-3	1.8	-1.2
COc1ccc(NS(=O)(=O)c2cccc(NC(=O)NC3CCCCC3)c2)cc1	0.63	2	-15	-0.5	·	·	·	·	-1.5
C=CCN1C(=O)C(=Cc2ccc3c(c2)CCC3)SC1=S	·	·	·	·	i	-6	-1	2.2	2.4
COC(=O)[C@H](Cc1c[nH]c2ccccc12)NC(=O)CCCc1c[nH]c2ccccc12	0.66	5	5	5.4	i	-34	-41	-6.0	0.2
Cc1nn(CC(=O)Nc2ccccc2)c(=O)c2ccccc12	0.67	-3	1	1.5	·	·	·	·	1.6
O=C(CSc1nc2ccccc2s1)N1c2ccccc2Sc2ccc(Cl)cc21	0.7	-7	0	2.8	·	·	·	·	-2.9
COC(=O)c1ccsc1NC(=O)C1=COCCO1	0.7	12	-2	6.4	i	2	-10	-0.1	1.6
CCCN1C2CCCC1CC(NC(=O)c1cccc(Cl)c1)C2 (configuration not stated)	0.68	·	-3	0.6	i	14	6	2.0	-1.3
Cc1ccccc1NC(=O)/C(C#N)=C/c1ccc(-c2ccc(Cl)c(C(=O)O)c2)o1	·	-10	11	·	i	-27	-35	-6.4	-5.0
CN(C)c1ccc(/C=C2\CCCc3c2nc2ccccc2c3C(=O)O)cc1	0.64	·	7	7.7	i	-44	-41	-10	5.7
CCCc1cc(C(=O)Nc2cccc([N+](=O)[O-])c2)cs1	0.64	-6	-2	1.7	i	-23	-20	-6.2	-3.2
Cc1ccc(S(=O)(=O)Nc2ccc3c(c2)CC(=O)N([C@H](C)CO)C[C@@H](C)[C@H](CN(C)S(=O)(=O)c2ccccc2)O3)cc1	·	-1	2	1.1	i	-1&5	-5&-3	0.8&-0.8	-3.5
CCOc1ccc(CCNc2nc3ccccc3n3cnnc23)cc1OCC	0.72	3	-19	1.8	i	4	4	-9.5	4.6
CCC1(CC)NC(=O)N(CC(=O)Nc2ccc(OCc3ccccc3)cc2)C1=O	0.71	10	2	-0.1	i	1	-15	0.7	5.3
COc1ccc(/C=C2/SC(=O)NC2=O)cc1	·	14	-2	5.3	·	-11	-18	-2.7	1.5
CC(OC(=O)c1cc(S(=O)(=O)N(C)C)ccc1N1CCCC1)C(=O)NCc1ccccc1 (configuration not stated)	0.67	-2	3	2.9	i	14	-4	3.8	10
Cc1csc(SCC(=O)NC(C)c2ccccc2)n1 (configuration not stated)	0.66	-15	5	2.0	i	15	9	0.5	3.8
COc1ccc([C@H]2CC(=O)C=C(c3cccc(CO)c3)C2)cc1OC	·	-1	-6	15	i	-6	-6	-5.9	0.1
Cc1cc2n(n1)C(c1cccs1)Nc1ccccc1-2 (configuration not stated)	0.72	55	2	-25	·	·	·	·	-1.2
Cc1ccc(Cn2ncc3c(N4CCN(CCc5ccccc5)CC4)ncnc32)cc1	0.66	3	6	0.5	i	13	-1	3.2	1.4
CN(C)S(=O)(=O)c1cccc(NC(=S)Nc2cccc3cnccc23)c1	0.66	·	4	-0.9	i	32	-15	11	-2.5
CN(C(=O)c1cccnc1)c1nc(-c2ccccc2)cs1	0.67	-2	-16	2.8	·	·	·	·	4.9
CN1CCc2nc(SCC(=O)Nc3ccc(Cl)cc3)c(C#N)cc2C1	0.68	99*	4	1.3	·	·	·	·	5.2
C=CCOc1ccc(/C=N/NC(=O)c2c(C)nc3ccc(Cl)cn23)cc1	·	-8	-2	·	i	12	7	4.3	1.9
CC(C(=O)NCCC1=CCCCC1)c1ccc([N+](=O)[O-])cc1 (configuration not stated)	0.66	9	-6	3.8	i	7	5	-0.9	-1.2
CN=C1S/C(=C\c2c(OC)cc(OC)cc2OC)C(=O)N1C	0.7	-32	1	2.1	i	-3	-4	-0.2	0.7
CCOC(=O)N1CCN(CC(O)COc2ccccc2[N+](=O)[O-])CC1 (configuration not stated)	0.68	2	-1	5.5	i	7	9	-1.6	-0.6
Cc1ccc(CN2CCN(C(=O)C3CCCO3)CC2)cc1 (configuration not stated)	0.73	99*	-1	0.8	·	·	·	·	2.3
CCOC(=O)c1sc(-c2ccc(OC)cc2)cc1N	0.69	-5	7	-1.3	·	·	·	·	2.2
O=C(CCCNC(=O)/C(=C/c1ccccc1F)NC(=O)c1ccccc1)OCc1ccccc1	0.67	·	0	1.1	i	-11	8	1.4	2.2
CC(C)C[C@@H]1O[C@H](CCc2ccccc2)CC2=C1C(=O)OC(C)(C)O2	·	·	·	·	i	-3	-8	-3.7	-1.6&1.5
CCCn1cnc2cc(NCc3cccc(OC)c3)ccc21	0.64	95*	-1	-9.4	i	3	1	0.3	2.1
C=CCn1c(CCc2ccccc2)nnc1SCC(N)=O	0.65	-6	4	1.7	i	11	0	1.2	5.3
Cc1cc(C)nc(SCc2nnc(SCc3ccccc3Cl)o2)n1	0.69	·	-6	-1.0	·	·	·	·	0.7
COc1ccc(C2/C(=C(/O)c3ccc(C)cc3)C(=O)C(=O)N2CC2CCCO2)cc1OC (configuration not stated)	0.66	-3	10	11	i	-1	14	-0.1	0.2
Cc1cccc(NC(=O)c2cnc3sccn3c2=O)c1C	0.78	·	·	-79	i	5	5	0.4	-4.9
Cc1ccn2c(C(=O)c3ccc(Cl)cc3)cnc2c1	0.67	30	-4	2.6	·	·	·	·	-1.2
COCCNC(=O)C(c1cccs1)N(Cc1cccs1)C(=O)Cn1nnc2ccccc21 (configuration not stated)	0.77	-5	6	0.1	·	·	·	·	2.6
O=C(NCC(=O)N(Cc1cccs1)C(C(=O)NC1CCCCC1)c1cccnc1)c1ccco1 (configuration not stated)	0.69	1	-5	-0.4	·	·	·	·	1.3
CC1CC(C)CN(C(=O)CSc2nnc(-c3ccco3)o2)C1 (configuration not stated)	0.67	·	-6	1.6	i	-2	-14	0.0	-4.0
O=C(N/N=C/c1ccco1)c1cc(Br)ccc1OCc1ccccc1	·	0	-17	·	i	-22	-22	4.2	0.1
CN(C1CCCCC1)S(=O)(=O)c1cccc(C(=O)OCC(=O)NC2CCCc3ccccc32)c1 (configuration not stated)	0.73	·	-4	3.7	·	·	·	·	3.9
O=C(c1ccc(F)cc1)N1CCC(C(=O)N2CCN(S(=O)(=O)c3cccc(Cl)c3)CC2)CC1	0.71	0	-1	2.1	i	-1	-8	0.7	2.6
CCOc1ccc(-c2ccc(SCC)nn2)cc1	0.68	-2	2	4.8	i	4	4	-0.2	-0.1
CC(=O)N1N=C(c2ccc3nccnc3c2)CC1c1ccccc1 (configuration not stated)	0.74	-2	-7	3.4	·	·	·	·	-3.0
COc1ccc(N=C2S/C(=C\c3ccc(C)s3)C(=O)N2CC(C)C)cc1	·	0	-1	1.3	·	·	·	·	3.2
OC1(C#Cc2c(-c3ccsc3)oc3ccc(N4CCOCC4)cc23)CCCCC1	0.67	-12	6	-37	i	-9	-12	22	0.5

# An excerpt from above, limited to Ecoli rRNA inh RFP and UCH37 inh:
mol | Ecoli rRNA inh RFP | UCH37 inh
O=C(NCC(=O)N(Cc1cccs1)C(C(=O)NC1CCCCC1)c1cccnc1)c1ccco1 (configuration not stated) | · | -0.4
CCOC(=O)c1sc(-c2ccc(OC)cc2)cc1N | · | -1.3
Cc1ccc(Cn2ncc3c(N4CCN(CCc5ccccc5)CC4)ncnc32)cc1 | 3.2 | 0.5
CC(C(=O)NCCC1=CCCCC1)c1ccc([N+](=O)[O-])cc1 (configuration not stated) | -0.9 | 3.8

# (continued)
SMILES	Ecoli growth	ALR H2O2 inh	Beta2AR agonist	UCH37 inh	FGF22 binding	Ecoli rRNA inh	Ecoli rRNA inh OD600	Ecoli rRNA inh RFP	HNF4A DNA FP
COc1ccc(NC(=O)CN(C)C(=O)CCCc2c[nH]c3ccccc23)cc1	0.65	11	6	-0.7	i	-5	-3	-0.7	0.0
Cc1ccc(C2(C)NC(=O)N(CC(=O)NNC(=O)c3ccccc3F)C2=O)cc1 (configuration not stated)	0.67	-9	2	3.3	i	·	·	·	8.2
Oc1ccc(C2CNCc3sccc32)cc1O (configuration not stated)	0.66	98*	1	2.3	i	·	·	·	-0.5
C/C=C(/C)C(=O)O[C@@H]1c2c(ccc3ccc(=O)oc23)O[C@@H]1C(C)(C)OC(C)=O	·	10	-13	-2.9	i	5	3	1.4	-2.2
CCOC(=O)c1ccc(-n2nc(C)cc2C)cc1	0.61	-12	0	0.7	i	7	2	3.1	20
Cc1cccc(C)c1Nc1nnc(SCC(=O)Nc2sccc2C#N)s1	0.71	15	31	4.2	i	-11	-19	1.0	17

# Assay outcomes: PubChem, several laboratories
